Screening data as filed in PubChem BioAssay.
AF4-AF9 inh: MLL-AF4/AF9 protein interaction inhibition; P42568; actives 0.47% (n = 350,000); AlphaScreen, biotin-AF4 peptide binding to FLAG-AF9; inhibition, % at 10 µM;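 active = every replicate reaching a set inhibition limit, whatever the replicate mean, cut at about 25% in these data; inconclusive = mean inhibition reaches that limit but some replicates miss it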;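 also: 0% = plate neutral control median and 100% = total signal loss; the record names both 10 and 1 µM as test concentration; the first replicate is given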
Target sequence (P42568 whole entry, looked up): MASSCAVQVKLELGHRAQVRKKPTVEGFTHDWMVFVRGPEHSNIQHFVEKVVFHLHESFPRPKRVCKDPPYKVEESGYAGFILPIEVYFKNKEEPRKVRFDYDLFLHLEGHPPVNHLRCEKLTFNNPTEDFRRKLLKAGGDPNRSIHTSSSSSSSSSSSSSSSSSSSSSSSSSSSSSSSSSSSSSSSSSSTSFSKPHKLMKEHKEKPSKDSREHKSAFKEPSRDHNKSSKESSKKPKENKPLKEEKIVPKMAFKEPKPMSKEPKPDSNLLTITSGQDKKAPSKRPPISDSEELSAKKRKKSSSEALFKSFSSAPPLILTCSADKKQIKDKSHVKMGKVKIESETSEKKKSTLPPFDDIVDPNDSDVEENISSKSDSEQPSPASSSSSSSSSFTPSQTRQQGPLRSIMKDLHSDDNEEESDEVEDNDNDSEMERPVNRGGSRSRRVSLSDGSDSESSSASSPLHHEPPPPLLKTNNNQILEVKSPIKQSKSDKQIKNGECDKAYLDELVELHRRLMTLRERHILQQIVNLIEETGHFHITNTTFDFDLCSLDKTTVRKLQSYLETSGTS
rRNA inh HTS: inhibitors of bacterial rRNA selective over humanized ribosomes | E. coli WT GFP vs humanized-ribosome RFP mutants, fluorescence, 24 h; stronger effect = lower value; DMSO median 0, no signal -100 | GFP signal change (wild-type ribosome), % (concentration not given with the values) | actives 1.6% (n = 350,000) | AID 720706;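 active = significant combined selectivity score with lowered wild-type GFP, culture density cut under 30%, mutant RFP and density less affected; inactive = any of these conditions unmet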; also: one replicate is shown; some compounds called inactive have numbers as strong as hits
FGF22 binding: binders of recombinant human FGF22 by thermal shift. calls only at 9.99 µM. AID 651658. actives 1.5% (n = 340,000). Q9HCT0. SYPRO orange fluorescence; percent of sucrose octasulfate shift, DMSO zero;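 active = melting point raised past a set limit in the mean and every replicate; inconclusive = no clear call; three in four hits are not shown here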
Target sequence (Q9HCT0 whole entry, looked up): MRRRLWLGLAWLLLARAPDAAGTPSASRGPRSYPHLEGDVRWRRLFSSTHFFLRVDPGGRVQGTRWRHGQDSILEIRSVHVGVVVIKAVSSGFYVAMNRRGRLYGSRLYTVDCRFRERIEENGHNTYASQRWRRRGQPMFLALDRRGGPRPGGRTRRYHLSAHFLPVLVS
RanGTP-Imp inh: inhibitors of RanGTP-importin-beta interaction, primary screen, biochemical, FRET, CFP-Ran, YFP-importin-beta, homogeneous; actives 1.1% (n = 300,000); cell-free CFP-Ran/YFP-importin-beta FRET ratio; inhibition, % (no concentration beside the values);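 active = most replicates above 15%; inconclusive = exactly half above 15%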;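 also: 0% = DMSO wells and 100% = Ran loaded with GDP instead of GTP; wells of about 40 µL received 100 nL stock; the first replicate is given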
T cruzi repl: blocks replication of Trypanosoma cruzi; AID 1885; actives 1.4% (n = 300,000); inhibition, % (test concentration not listed); T. cruzi beta-gal in NIH3T3, luminescence, 90 h;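 active = mean inhibition across valid replicates above about 55%, limit read from the data; inconclusive = mean below that limit but half or more replicates reach it; inactive = mean below it, under half of replicates reach it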;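 also: signal also drops with host cell toxicity which is not excluded here; 0% = plate median of DMSO wells and 100% = zero luminescence signal; higher percent means less beta-gal luminescence so fewer parasites; stock transfer was 50 nL into about 50 µL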
Beta cell apopt: beta cell apoptosis inhibition; INS-1E cytokine-induced death, ATP luminescence, 48 h; percent of positive-control rescue, neutral wells zero; protection from apoptosis, % (no concentration beside the values); actives 0.8% (n = 300,000);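 active = all replicates at 75% or more, or half of them and the mean; inconclusive = half reach 75% but not the mean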;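 also: 0% = cytokine-treated negative control wells and 100% = positive control rescue; higher means more ATP so stronger rescue from cytokine killing; wells of about 40 µL received 100 nL stock; the first replicate is given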
Calb FLC: C. albicans growth modulation with fluconazole. C. albicans CaCi-2 (fluconazole-resistant clinical isolate) + fluconazole, Alamar Blue growth, 48 h. growth inhibition, % (concentration not given with the values). actives 0.57% (n = 300,000). AID 1979;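 active = most replicates above 75%; inconclusive = exactly half above 75%; inactive = most below 75%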;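 also: all wells also contain fluconazole at 8 µg/ml as a sub-toxic cotreatment; 0% = median of DMSO wells and 100% = median of geldanamycin control wells; wells of about 8 µL received 7.5 nL stock; the first replicate is given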
ALR inh: blocks human ALR sulfhydryl oxidase activity | actives 3.8% (n = 290,000) | purified ALR, DTT oxidation, H2O2 HRP-luminol luminescence | P55789 | inhibition, % (concentration not given with the values);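 active = mean and each replicate at 75% or more; inconclusive = only one of the two met; inactive = neither met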;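 also: stock transfer was 7.5 nL into about 7.5 µL; 0% = neutral wells and 100% = wells with inactivated enzyme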
Target sequence (P55789 whole entry, looked up): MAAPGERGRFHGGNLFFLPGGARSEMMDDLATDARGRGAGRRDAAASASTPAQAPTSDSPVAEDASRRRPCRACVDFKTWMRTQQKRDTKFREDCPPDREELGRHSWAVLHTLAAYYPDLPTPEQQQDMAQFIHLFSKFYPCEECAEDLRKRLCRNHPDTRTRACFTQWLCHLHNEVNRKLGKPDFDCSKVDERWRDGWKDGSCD
rRNA inh HTS OD600: also measured in rRNA inh HTS; calls as there; OD600 change, %; measured here: OD600 growth;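 optical density of the mix in the first replicate; 0 = DMSO median and -100 = no signal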
rRNA inh HTS RFP: second read-out of rRNA inh HTS, no call of its own (marks repeat the call); RFP signal change, %; measured here: RFP humanized mutant strains;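 first replicate; 0 = DMSO median and -100 = no signal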
Starred values were filed as active, the others as inactive; i = inactive; ? = inconclusive; . = no result given.

SMILES	AF4-AF9 inh	rRNA inh HTS	rRNA inh HTS OD600	rRNA inh HTS RFP	FGF22 binding	RanGTP-Imp inh	T cruzi repl	Beta cell apopt	Calb FLC	ALR inh
Cc1ccc(-n2nc3c(=O)n(C(C)C(=O)NCCCc4ccccc4)nc(C)c3c2C)cc1 (centres undefined)	-0.9	-2	-8	0.5	i	?	5	6	3	-27
Cc1cccc(C(=O)OCC(=O)N(C)c2ccccc2)c1C	0.4	-7	-17	2.5	i	?	-3	-2	0	4
COc1ccc(-c2cc(C(F)(F)F)c(C#N)c(=O)[nH]2)cc1	.	-17	-10	-4.5	i	49*	-16	-1	23	.
COc1cccc(Nc2nc(-c3ccccc3O)nc3ccccc23)c1	-3.6	15	26	5.6	i	1.6	20	8	2	-14
Cc1ncc(CO)c2c1Oc1nc(-c3ccccc3F)nc(SCC(=O)N(C)c3ccccc3)c1C2	.	.	.	.	.	7.0	-6	.	20	3
NC(=O)c1cccnc1Nc1cccc([N+](=O)[O-])c1	-0.1	11	17	6.2	i	-2.1	-3	-6	4	.
c1ccc(-c2nc3ccccn3c2-c2ccccc2)cc1	.	-41	-52	-9.1	i	0.7	7	0	-4	2
CCOC(=O)CC1C(=O)NCCN1S(=O)(=O)c1ccc(NC(C)=O)cc1 (centres undefined)	0.8	-6	4	6.2	i	-2.1	-14	2	5	-2
COCCCn1nnnc1SCC(=O)N1c2ccccc2CC1C (centres undefined)	-0.6	-7	-20	-2.4	i	-1.5	-2	6	-5	-3
C/C(=N\NC(=O)c1nn(C)c(C)c1Br)c1ccc(NC(=O)c2ccccc2F)cc1	-2.5	3	3	1.1	i	1.7	0	2	1	6
CCN(CC)S(=O)(=O)c1ccc(N2CCOCC2)c(NC(=O)c2ccc(C#N)cc2)c1	-3.0	-10	-9	1.5	i	-2.4	7	4	28	-18
COc1cc(C(C)=O)ccc1OC(C)C(=O)Nc1ccc(S(=O)(=O)N2CCCC2)cc1 (centres undefined)	-27	6	2	2.7	i	.	.	0	.	-10
O=C1ON=C(c2ccccc2)/C1=C/c1ccc(O)cc1	-3.7	3	8	-0.2	i	0.8	1	.	34	87*
CCOc1cc(N2CCOCC2)c(OCC)cc1NC(=O)COC(=O)c1c(CC)noc1C	-7.3	18	14	2.2	i	.	.	5	.	-34
c1ccc(Cn2nnnc2C(c2cccs2)N2CCOCC2)cc1 (centres undefined)	.	.	.	.	.	0.9	-6	-8	9	-6
O=C(CCNS(=O)(=O)c1ccccc1C(F)(F)F)N1CCN(C(c2ccccc2)c2ccccc2)CC1	-2.3	6	-10	-0.4	i	2.1	30	14	-6	-8
O=C1/C(=C/C=C/c2ccco2)SC(=S)N1NS(=O)(=O)c1ccccc1	-2.7	8	1	8.0	i	.	.	-6	.	?
CCCCN(C(=O)CC(c1ccccc1)c1ccccc1)c1c(N)n(CCC)c(=O)[nH]c1=O	-4.7	11	4	-9.7	i	1.2	3	-2	16	2
CCn1c(C)[n+](Cc2ccccc2)c2ccc(Cl)cc21	-0.2	16	7	0.7	i	1.9	-11	-5	-14	-6
Cc1ccc(S(=O)(=O)N2CCCC(C(=O)N(Cc3cccs3)C3CC3)C2)cc1 (centres undefined)	.	.	.	.	.	3.4	1	0	-25	-4
O=C(CC12CC3CC(CC(Br)(C3)C1)C2)Nc1nncs1	-1.7	8	13	1.7	i	-1.2	-9	8	-2	-1
Cc1nn(CCCC(=O)Nc2sc3c(c2C#N)CCC3)c(C)c1[N+](=O)[O-]	.	.	.	.	.	-1.2	5	-10	32	-4
CN1CCC(=NNC(=O)c2ccc(N(Cc3ccc(Cl)cc3)S(C)(=O)=O)cc2)CC1	.	.	.	.	.	-3.2	9	3	2	-12
O=C(O)c1cc(=O)cc(C(=O)O)[nH]1	.	.	.	.	.	-2.0	1	-2	-17	28
CCOC(=O)C1CCN(C(=O)c2cc(S(=O)(=O)N3CCCCC3)ccc2C)CC1	-0.4	-2	-3	-2.0	i	.	10	2	.	-5
CCN1CCCC1CNC(=O)CCc1nnc(CCC2CCCCC2)o1 (centres undefined)	5.1	2	4	2.0	i	0.4	3	.	2	100*
CCN1CCN(C(=O)/C=C/c2ccc3c(c2)OCO3)CC1	-1.1	22	13	1.3	i	3.1	0	-6	-9	-3
Cc1ccc(C(=O)NNC(=O)CSc2nc(N)cc(N)n2)cc1	-2.4	11	15	-10	i	-3.9	-4	-4	-11	23
COc1ccc(NS(=O)(=O)c2cc(NC(=O)c3cc(F)c(F)cc3Cl)ccc2N2CCOCC2)cc1	1.6	4	4	-0.6	i	.	.	13	.	-8
CCOc1ccc(N(CC(=O)NCC2CCCO2)S(=O)(=O)c2ccc(C)cc2)cc1 (centres undefined)	-1.1	-7	-1	-4.1	i	-1.9	-11	1	-6	.
COc1ccc(-c2c(-c3ccsc3)oc(=O)c3cc(OC)c(OC)cc23)cn1	.	-12	-4	-4.3	i	.	.	-3	.	1
O=C(Nc1cccc2ccccc12)c1ccc(F)cc1	0.5	-2	-2	-1.6	i	-0.4	-16	-4	-3	-8
CCOc1ccc(N2CC(C(=O)Nc3ccccc3C(=O)N3CCOCC3)CC2=O)cc1 (centres undefined)	-1.9	0	-19	1.2	i	-13	-2	-2	-6	-1
Cc1ccc(NS(=O)(=O)c2ccc(-n3cccn3)cc2)c(C)c1	-3.0	-3	-18	8.3	i	-2.5	10	1	-30	-8
O=C(NCC1CCCO1)C1CCN(C2CCN(C(=O)C3CCCCC3)CC2)CC1 (centres undefined)	7.9	21	12	2.4	i	5.4	-5	-1	2	-8
O=C(CSc1nc2ccccc2o1)NC1CCCC1	2.2	7	4	4.3	i	1.9	-1	-4	-6	-9
CCn1nc(C)c(Br)c1-c1nc(CS(=O)(=O)c2ccc(F)cc2)no1	-1.1	9	0	2.1	i	1.1	9	-5	5	.
Cn1c(=O)c2c(nc(SCc3cccnc3)n2Cc2ccc(F)cc2)n(C)c1=O	.	.	.	.	.	-2.0	-5	.	5	-2
COc1cc(C(O)CO)ccc1O (centres undefined)	-0.4	8	11	0.7	i	.	.	-1	.	37
Brc1cccc(-c2n[nH]c(-c3ccccc3)n2)c1	.	.	.	.	.	1.1	22	7	-22	8
Cc1nn(Cc2ccccc2)c(C)c1C(=O)N1CCN(S(=O)(=O)/C=C/c2ccccc2)CC1	-1.9	-3	-6	0.5	i	.	.	4	.	21
Cc1ccc(SCC(=O)NC2CCS(=O)(=O)C2)cc1 (centres undefined)	-0.7	-3	2	-1.5	i	-0.6	1	3	14	-6
CN(C(=S)Nc1ccc(Oc2ccccc2)cc1)C1CCCCC1	-7.7	-37	-42	12	i	-0.6	-26	-1	-10	-3
CN(C)CC#CCOC(c1ccccc1)c1ccccc1	9.5	-11	-11	-1.8	i	0.2	12	1	-1	.
C=CCN(C(=O)Nc1ccc2oc(C)nc2c1)c1ccccc1	.	.	.	.	.	-6.9	9	-4	4	-11
COC(=O)CSC1=C(C#N)C(c2ccc(Cl)cc2)C(C(=O)OC)C(=O)N1 (centres undefined)	.	.	.	.	.	6.9	-3	3	9	17
Cc1ccc(S(=O)(=O)c2nc(-c3ccccc3Cl)oc2N2CCN(C)CC2)cc1	15	-44	-68	-11	i	.	.	-7	.	-2
CCC1CC(C(=O)Nc2ccccc2)C(=O)O1 (centres undefined)	-3.3	6	-2	-2.1	i	1.5	-10	.	-5	-4
CC(C)Cn1c(CN2CCN(C)C(CCO)C2)nc2ccccc21 (centres undefined)	0.7	26	9	2.5	i	2.5	23	-5	15	-6
COc1ccc(N2CCN(Cc3cc(=O)oc4ccc(C)cc34)CC2)cc1	.	.	.	.	.	1.4	-10	1	5	-27
COc1ccc(CC(=O)N(C)C2CCCCC2)cc1S(=O)(=O)N1CCOCC1	-3.3	4	9	1.1	i	-1.3	1	1	-3	-2
C[C@@H]1CCCCCCCCC(=O)OCCN1C(=O)OC(C)(C)C	-0.3	11	1	5.9	i	.	.	-6	.	1
CC(C)(C)NC(=O)c1ccc2c3c(cccc13)CC2	-2.9	6	2	-0.6	i	0.1	14	-5	-4	-10
CCOC(=O)N1CCN(C(=O)CSc2ccc3nnc(-c4ccncc4)n3n2)CC1	13	0	0	0.6	i	6.4	-20	-8	-10	-3
O=C(Nc1ccc(S(=O)(=O)NCC2CCCO2)cc1)c1ccccc1 (centres undefined)	-0.7	-8	-1	-2.3	i	2.7	-19	-3	14	-3
CC(C)[C@H](NC(=O)c1ccccc1)C(=O)OCC(=O)Nc1ncc(Cl)cc1Cl	-3.9	0	10	2.2	i	.	.	-9	.	-1
CC(=O)N1Cc2cc([N+](=O)[O-])ccc2Oc2ccccc21	-3.0	14	6	0.7	i	-3.2	-17	-10	-12	-24
Cc1cccc(Nc2nc(N)c([N+](=O)[O-])c(NCCO)n2)c1	1.8	5	-14	-2.5	i	-1.4	2	.	3	-11
O=C(OCC(=O)N1CCc2ccccc21)c1c2c(nc3ccccc13)CCCCC2	.	.	.	.	.	-0.2	43	12	-8	-3
COc1ccc(Oc2ccc3c(C(F)(F)F)cc(C(F)(F)F)nc3n2)cc1	.	.	.	.	.	0.1	27	8	14	-4

Full records, looked up by structure. Values in the order: AF4-AF9 inh | rRNA inh HTS | rRNA inh HTS OD600 | rRNA inh HTS RFP | FGF22 binding | RanGTP-Imp inh | T cruzi repl | Beta cell apopt | Calb FLC | ALR inh
COC(=O)CSC1=C(C#N)C(c2ccc(Cl)cc2)C(C(=O)OC)C(=O)N1 (centres undefined) reads . | . | . | . | . | 6.9 | -3 | 3 | 9 | 17
C[C@@H]1CCCCCCCCC(=O)OCCN1C(=O)OC(C)(C)C reads -0.3 | 11 | 1 | 5.9 | i | . | . | -6 | . | 1

Further structures.
SMILES	AF4-AF9 inh	rRNA inh HTS	rRNA inh HTS OD600	rRNA inh HTS RFP	FGF22 binding	RanGTP-Imp inh	T cruzi repl	Beta cell apopt	Calb FLC	ALR inh
O=C(c1cccc(Cl)c1)N1CCC(=O)N(C(COCc2cccc(Cl)c2)Cc2ccccc2)CC1 (centres undefined)	0.3	-8	-12	1.9	i	-3.7	34	6	22	-2
Cc1ccc(S(=O)(=O)NCC(C)n2cncn2)cc1 (centres undefined)	-5.2	6	-2	0.5	i	2.3	-5	2	-1	-13
COc1ccc(C(=O)NC(=S)Nc2ccc(N3CCCC3)cc2)cc1OC	.	.	.	.	.	-2.6	7	2	-1	2
COc1ccc(CCN2CC(C(=O)N(C)C3CCOCC3)CCC2=O)cc1 (centres undefined)	-3.7	16	10	3.8	i	-1.7	-16	5	1	-6
Cn1c(N)c(S(=O)(=O)c2ccc(Br)cc2)c2nc3ccccc3nc21	.	.	.	.	.	2.7	18	-8	-3	-13
CCN(c1ccccc1)S(=O)(=O)c1cc2c(cc1C)n(C)c(=O)c(=O)n2C	-3.1	11	13	-0.7	.	-0.5	3	-2	-4	-1
Cc1cc(C)c(C)c(C(=O)COC(=O)CNC(=O)CN2C(=O)c3ccccc3C2=O)c1C	-6.0	4	6	1.4	i	-9.7	-7	-9	4	-1
Cc1cc(C)cc(NC(=O)COC(=O)c2ccc3c(c2)OCCO3)c1	-3.2	4	10	-2.0	i	.	.	-2	.	-5
CCCCC1(CO)C(=O)N(c2ccccc2)N(c2ccccc2)C1=O	-0.4	0	-3	-0.7	i	1.6	1	-5	5	0

An excerpt. The share of hits here may be higher or lower than overall.
